# Bioassay records: PubChem BioAssay, several laboratories
# HNF4A DNA FP – change in binding of human HNF4 alpha to DNA; P41235; HNF4a-FITC DNA binding, fluorescence polarization, 1 h; activity change, % at 10 µM; actives 0.3% (n = 360,000); AID 1224865; in the data active = activity change above about 30%, passing the limit was not always enough;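 also: controls were the assay level and a saturating level of protein; the project sought stronger binding though the title names inhibitors; some compounds called inactive have numbers as strong as hits; positive values seem to mean higher polarization but the record does not say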
# Target sequence (P41235 whole entry, looked up): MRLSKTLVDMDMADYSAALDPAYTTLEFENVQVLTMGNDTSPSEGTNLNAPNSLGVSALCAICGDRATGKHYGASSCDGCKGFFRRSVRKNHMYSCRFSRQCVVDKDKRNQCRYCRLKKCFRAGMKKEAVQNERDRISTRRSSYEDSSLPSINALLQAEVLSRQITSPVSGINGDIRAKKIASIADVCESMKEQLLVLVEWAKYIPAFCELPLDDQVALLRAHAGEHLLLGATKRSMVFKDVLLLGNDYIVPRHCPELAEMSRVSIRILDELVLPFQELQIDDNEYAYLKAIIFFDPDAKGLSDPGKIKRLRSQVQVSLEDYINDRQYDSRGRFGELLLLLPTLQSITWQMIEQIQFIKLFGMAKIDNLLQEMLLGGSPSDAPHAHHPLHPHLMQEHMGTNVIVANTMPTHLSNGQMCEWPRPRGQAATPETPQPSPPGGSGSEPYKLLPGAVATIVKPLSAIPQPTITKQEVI
# FGF22 binding – binders of recombinant human FGF22 by thermal shift; calls only at 9.99 µM; SYPRO orange fluorescence; percent of sucrose octasulfate shift, DMSO zero; AID 651658; actives 1.5% (n = 340,000);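 active = melting point raised past a set limit in the mean and every replicate; inconclusive = no clear call; three in four hits are not shown here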
# Target sequence (Q9HCT0 whole entry, looked up): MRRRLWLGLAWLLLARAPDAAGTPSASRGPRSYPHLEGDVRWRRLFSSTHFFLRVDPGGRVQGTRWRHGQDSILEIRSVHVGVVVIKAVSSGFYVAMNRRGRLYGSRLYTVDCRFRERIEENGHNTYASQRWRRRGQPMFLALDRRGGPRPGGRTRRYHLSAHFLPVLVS
# RanGTP-Imp inh – inhibitors of RanGTP-importin-beta interaction, primary screen, biochemical, FRET, CFP-Ran, YFP-importin-beta, homogeneous; cell-free CFP-Ran/YFP-importin-beta FRET ratio; inhibition, % (test concentration not listed); AID 2216; actives 1.1% (n = 300,000);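 active = most replicates above 15%; inconclusive = exactly half above 15%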;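 also: 0% = DMSO wells and 100% = Ran loaded with GDP instead of GTP; wells of about 40 µL received 100 nL stock; the first replicate is given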
# Vif TR-FRET – HIV-1 Vif–A3G interaction blockers – biochemical, TR-FRET, GST-Vif 1-94, biotin-A3G peptide, dose response retest, primary screen (AID 1117319). TR-FRET GST-Vif / biotin-A3G peptide binding; higher % means a stronger effect; test concentration not given here; strong numbers were not always called active. inhibition, %; hits with a dose series show IC50 in µM. actives 0.57% (n = 260,000);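 active = above the screen mean plus three standard deviations and confirmed in dose response; inconclusive = results disagree or hit not tested in dose response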;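 also: Vif residues 1-94 fused to GST binding biotinylated APOBEC3G peptide 110-148; 0% = full assay without inhibitor and 100% = GST in place of GST-Vif; retest series ran down from 100 µM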
# MLL AF4-AF9 inh – inhibitors of human MLL-AF4/AF9 interaction; P42568; AlphaScreen, biotin-AF4 peptide binding to FLAG-AF9; inhibition, % at 10 µM; actives 0.47% (n = 350,000);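 active = every replicate reaching a set inhibition limit, whatever the replicate mean, cut at about 25% in these data; inconclusive = mean inhibition reaches that limit but some replicates miss it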;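 also: 0% = plate neutral control median and 100% = total signal loss; the record names both 10 and 1 µM as test concentration; the first replicate is given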
# UCH37 inh – inhibitors of human deubiquitinating enzyme UCH37; purified proteasome/UCH37, Ub-AMC cleavage fluorescence; actives 0.33% (n = 330,000); Q9Y5K5; inhibition, % (concentration not given with the values);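 active = mean of two replicates above 20%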;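 also: 0% = compound-free wells with enzyme and 100% = wells lacking proteasome; stock transfer was 100 nL into about 20 µL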
# Target sequence (Q9Y5K5 whole entry, looked up): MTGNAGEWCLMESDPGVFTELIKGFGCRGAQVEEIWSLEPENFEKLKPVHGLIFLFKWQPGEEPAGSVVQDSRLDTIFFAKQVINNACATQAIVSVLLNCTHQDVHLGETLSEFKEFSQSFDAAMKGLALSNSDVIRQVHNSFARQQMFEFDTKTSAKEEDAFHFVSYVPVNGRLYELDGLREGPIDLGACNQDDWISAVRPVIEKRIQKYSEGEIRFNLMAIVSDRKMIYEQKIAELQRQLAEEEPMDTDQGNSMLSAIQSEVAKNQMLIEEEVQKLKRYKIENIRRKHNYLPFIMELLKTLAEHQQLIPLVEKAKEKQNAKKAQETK
#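 system = Proteasome-associated human UCH37 deubiquitinase | amount = 0.15 nM proteasome as dispensed | medium = pH 7.4 Tris-HCl (50 mM) with ovalbumin, ATP-MgCl2, DTT | incubation = 30 min preincubation with enzyme, 25 min cleavage at room temperature | detection = AMC fluorescence 355/460 nm | read-out basis = percent inhibition | controls = no-proteasome and no-compound wells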
# Ecoli growth – inhibitors of Escherichia coli growth; OD600, 23 h; hits give low values; OD600 absorbance (concentration not given with the values); actives 0.21% (n = 330,000);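 active = OD600 absorbance below the run mean of sample wells minus 3.6 SD, in any replicate, cut at about 0.56 in these data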;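 also: stock transfer was 300 nL into about 60 µL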
# * = called active by the depositor; i = inactive; ? = inconclusive; nt = no result given; & = joins results of further samples. Some of the compounds tested; count on the stated rates, not on these rows.
HNF4A DNA FP,FGF22 binding,RanGTP-Imp inh,Vif TR-FRET,MLL AF4-AF9 inh,UCH37 inh,Ecoli growth,smiles
-0.5,nt,-1.5,-8.2%,nt,3.1,0.706,O=C(NNS(=O)(=O)c1ccccc1)c1ccc(S(=O)(=O)N2CCCCC2)cc1
4.0,i,-1.7,-2.9%,-2.2,2.7,0.662,O=C(c1cc2ccccc2oc1=O)N1CCCCCCC1
3.7,i,-1.8,nt,0.5,1.1,0.668,COc1ccc(C2CC(=O)c3cnn(-c4nc(C)cc(C)n4)c3C2)cc1OC (stereo unspecified)
-1.9,nt,4.0,1.7%,nt,2.4,0.666,Cc1ccc2c(c1)N(C(=O)CCC(=O)O)CCO2
1.0,i,-1.9,6.5%,1.3,3.4,0.726,CC(C)CCN1CCN(Cc2cnc(-c3ccccc3)s2)CC1CCO (stereo unspecified)
2.5,i,3.5,-3.3%,2.3,-1.9,0.662,C=CCn1c(SCCNC(C)=O)nc2cc(-c3ccccc3)sc2c1=O
2.5&3.6,i,-1.6,-1.9%&-1.4%,-27.6,-31.3&-41.8,0.684&0.725,CCOC(=O)C1=C(C)NC(C)=C(C(=O)OCC)C1C(=O)OCC(=O)NC(C)C
2.0,i,6.0,-1.8%,-0.1,0.2,0.644,O=C(CN1C(=O)NC2(CCCc3ccccc32)C1=O)c1ccc(Br)cc1 (stereo unspecified)
-0.5,i,7.0,-10.7%,0.3,2.8,0.719,COC(=O)Cc1ccc(NC(=S)N2CCCC(C)C2)cc1 (stereo unspecified)
0.1,nt,4.4,nt,nt,3.6,0.677,CCOc1ccc(CN(CCC#N)C(=S)NC(=O)c2ccccc2)cc1
4.0,i,5.6,12.0%,-6.1,-0.5,0.701,COc1cccc(CN(C)C(=O)CC2C(=O)NCCN2C2Cc3ccccc3C2)c1 (stereo unspecified)
9.5,nt,nt,2.0%,nt,i,0.724,COc1ccccc1[C@H]1C(c2cccc(Cl)c2)=NN(c2ccccc2)[C@@H]1CO
0.8,i,nt,-10.6%,-0.2,2.0,0.765,Cc1c(C(=O)Nc2cccc(S(=O)(=O)N3CCOCC3)c2)oc2ccc(Br)cc12
-0.1,i,nt,nt,-4.3,nt,nt,O=C(O)c1cocc1C(=O)O
1.6,i,3.6,nt,15.2,7.3,0.709,CCOc1ccc(N(CC(=O)NC2CCCCC2)S(=O)(=O)c2ccc(C)cc2)cc1
1.2,nt,4.0,31.7%,nt,-2.6,0.707,COc1cc(CN2CCN(c3cccc(C)c3C)CC2)cc(OC)c1O
5.7,i,-0.4,10.8%,0.0,-0.9,0.691,Cc1ccc(C(=O)Cn2cccn2)cc1
-0.1,nt,-4.0,6.0%,nt,1.0,0.662,C=CCc1cc(C(=O)N2CCCCC2)ccc1O
7.4,i,0.3,nt,2.2,0.3,0.683,Cc1ccccc1OCCn1ccnc1
3.9,i,nt,nt,1.4,nt,nt,CCCCNC(=O)C(NC(=O)Cc1cc(C(F)(F)F)cc(C(F)(F)F)c1)C(=O)c1ccccc1 (stereo unspecified)
1.1,nt,-1.0,-1.2%,nt,2.3,0.702,CSc1cccc(NC(=O)C2CCCN2S(=O)(=O)c2ccc(Br)s2)c1 (stereo unspecified)
-0.3,i,0.4,23.6%,nt,1.4,0.63,Cn1nc(C(F)(F)F)c(-c2ccc(Br)cc2)c1NC(=O)CSCC(=O)O
2.3,nt,-3.9,23.0%,nt,2.9,0.71,CC(Sc1nc2cc(Cl)ccc2s1)C(=O)Nc1ccc2c(c1)OCO2 (stereo unspecified)
-3.6,i,-1.8,5.2%,2.0,6.4,0.701,c1ccc(-c2c[n+]3c(n2-c2ccccc2)CCC3)cc1
-9.0,nt,-0.1,-7.5%,nt,2.4,0.764,CCCn1c(SCC(=O)NC(C)C23CC4CC(CC(C4)C2)C3)n[nH]c1=O (stereo unspecified)
0.3,i,?,nt,-2.2,1.5,0.636,COc1ccc(-n2c(SCC(=O)Nc3ccccc3OC)nc(O)c(Cc3ccccc3)c2=O)cc1
0.2,i,nt,-5.3%,-0.5,-0.8,0.669,O=C(CNC(=O)c1ccccc1F)OCn1nnc2ccccc2c1=O
2.3,nt,0.4,1.4%,nt,-0.1,0.741,O=C(OCC(F)(F)C(F)F)c1ccccc1C(=O)Oc1ccc(F)cc1F
1.8,nt,-2.5,-6.1%,nt,-17.8,0.725,CCOC(=O)C(C)Oc1ccc2c(CC)cc(=O)oc2c1C (stereo unspecified)
-3.0,nt,1.6,4.9%&-1.1%,nt,0.3,0.689,COc1ccc(CC(NC(C)=O)C(=O)NC2CCN(S(=O)(=O)c3ccccc3)CC2)cc1OC (stereo unspecified)
4.0,nt,7.4,-5.7%,nt,-73.4,0.641,Cc1cc(N2CCN(C3CCCC3)CC2)n2c(nc3ccccc32)c1C#N
-3.0,nt,-2.4,-4.2%,nt,6.1,0.683,Cc1c(NC(=O)OC(C)C)sc(=S)n1C
-0.6,i,2.1,4.0%,1.1,nt,nt,C/C(=N\OC(=O)c1ccc(C)cc1)c1c(C)nc2cc(C)ccn12
-7.0,i,nt,3.0%,0.3,2.6,0.684,Cc1ccccc1S(=O)(=O)N1[C@@H](c2ccc(Cl)cc2)C(C(=O)O)=CC[C@H]1c1ccc(Cl)cc1
0.5,i,0.2,nt,2.9,0.3,0.677,COc1cc(OC)c(-c2sc(Nc3ccccc3)n[n+]2-c2ccc(F)cc2)cc1OC
0.5,i,nt,nt,nt,-2.3,0.709,CN(C(=O)c1ccc(NC(=O)Cc2ccc(NC(=O)C3CCN(C(=O)C4CCCCC4)CC3)cc2)cc1)C1CC1
7.4,i,nt,nt,-1.3,nt,nt,CCCc1nc2c3ccccc3ccn2c1Cc1cccc(Cl)c1
-0.5,nt,1.7,-3.5%,nt,-59.8,0.707,CN(C(=O)c1cccs1)c1ccccc1C(=O)O
3.0,i,nt,nt,-0.9,nt,nt,CCNC(=O)C1CCCN(C(=O)c2ccc(OC)cc2OC)CC1 (stereo unspecified)
-1.4,i,nt,3.0%,-2.2,4.9,0.678,O=C(CCC(=O)Nc1ccccc1Cl)NNS(=O)(=O)c1ccc(Cl)cc1
2.6,i,?,-0.6%,-12.9,2.3,0.672,CCOc1ccc(NC(=O)CSc2nc(=O)n(Cc3cccnc3)c3c2CCC3)cc1
2.8,i,-8.8,-3.9%,0.1,-123.1,0.742,O=C(CSc1nc2c([nH]c3ccccc32)c(=O)n1-c1ccccc1F)NCC1CCCO1 (stereo unspecified)
-2.4,nt,1.7,9.0%,nt,-0.3,0.688,Cc1cc(C(F)(F)F)n2nc(-c3sccc3-n3cccc3)cc2n1
-3.0,i,nt,nt,-8.3,-460.4,0.638,O=C(COC(=O)c1ccccc1NCCO)Nc1ccc(S(=O)(=O)NC2=NCCCCC2)cc1
3.9,i,-0.9,nt,-5.8,0.4,0.603,CC(C)CC(=O)N1CCN(C(=O)c2ccc(-c3ccccc3)cc2)CC1
0.1,i,1.6,-0.4%,-9.2,-1.9,0.706,COc1cccc2c(O)cc(=O)n(C)c12
1.9,i,?,-1.9%,0.3,3.8,0.658,CC(=O)c1cccc(N(C(=O)c2ccco2)C(C(=O)NC2CCCC2)c2ccccc2F)c1 (stereo unspecified)
-0.5,i,nt,nt,0.2,0.9,0.743,O=C(CC(O)CCc1ccccc1)c1ccc(O)cc1 (stereo unspecified)

# Reformatted: results already given.
# Each structure is followed by: HNF4A DNA FP	FGF22 binding	RanGTP-Imp inh	Vif TR-FRET	MLL AF4-AF9 inh	UCH37 inh	Ecoli growth
c1ccc(-c2c[n+]3c(n2-c2ccccc2)CCC3)cc1
  -3.6	i	-1.8	5.2%	2.0	6.4	0.701
O=C(CSc1nc2c([nH]c3ccccc32)c(=O)n1-c1ccccc1F)NCC1CCCO1 (stereo unspecified)
  2.8	i	-8.8	-3.9%	0.1	-123.1	0.742

# Additional structures follow:
HNF4A DNA FP,FGF22 binding,RanGTP-Imp inh,Vif TR-FRET,MLL AF4-AF9 inh,UCH37 inh,Ecoli growth,smiles
0.8,nt,-1.9,20.3%,nt,8.4,0.768,Cn1cc(C(c2ccccn2)c2cn(C)c3ccccc23)c2ccccc21
1.4,i,nt,nt,-3.8,nt,nt,COc1ccccc1NC(=O)Nc1nc(C(N)C2CCCCC2)cs1 (stereo unspecified)
3.0,nt,-2.8,nt,0.1,0.0,0.701,CS(=O)(=O)c1ncc(CO)n1Cc1ccccc1
2.7,nt,1.7,9.1%,nt,1.0,0.61,CCN(CC)S(=O)(=O)c1cccc(NC(=O)COc2ccc(C#N)cc2OC)c1
nt,i,0.6,4.2%,-1.6,5.7,0.657,CCn1cnc2sc(C(=O)N3CCN(Cc4ccc5c(c4)OCO5)CC3)c(C)c2c1=O
0.3,i,1.7,-5.1%,5.8,3.5,0.775,COc1cc(C(c2sc3nc(C)nn3c2O)N2CCN(c3ccccc3)CC2)cc(OC)c1OC (stereo unspecified)
0.6,nt,-0.7,-1.7%,-0.1,3.7,0.671,S=c1[nH]nc(Nc2cccc(Cl)c2)s1
7.7,i,5.3,7.6%,11.6,-1.0,0.677,CCN(CC)CC(=O)N1c2ccccc2CCc2ccc(NC(=O)c3cc(OC)c(OC)c(OC)c3)cc21
-5.2,i,1.4,-9.7%,-0.5,4.5,0.654,O=C(Nc1nc2ccccc2s1)NC1CCCCC1
-3.8,nt,0.8,15.1%&13.2%,nt,-1.2,0.719,O=C1C(NS(=O)(=O)c2cccs2)=C(N2CCN(c3cccc(Cl)c3)CC2)C(=O)c2ccccc21
0.7,i,-0.8,9.6%,0.4,3.0,0.805,CCOC(=O)c1c(NC(=O)CSc2nnc(-c3c[nH]c4ccccc34)n2CCOC)sc2c1CCCCC2
-2.0,i,3.9,7.9%,7.0,6.9,0.748,CC(=O)c1ccc(OCC(O)CN2CCN(c3ccccn3)CC2)cc1 (stereo unspecified)
0.1,nt,2.7,-3.3%,nt,0.1,0.644,O=C(CCc1nnc2n(Cc3ccc(Cl)cc3)c(=O)c3ccccc3n12)N1CCN(c2ccccn2)CC1
0.4,nt,-2.8,-1.2%,nt,4.3,0.67,Cc1cccc(-c2nc3c(c(SCC(=O)N(C)C)n2)CCCC3)c1
1.7,i,-0.5,1.7%,1.5,-2.6,0.721,CC(=O)c1ccc(NC(=O)COc2ccccc2C(=O)Nc2ccccc2)cc1
1.9,i,2.1,67.1%,3.5,2.1,0.641,O=C(C1CC(c2ccccc2O)=NO1)N1CCCCC1 (stereo unspecified)
3.7,i,2.1,-15.1%&-13.6%,6.1,-23.5,0.713,COc1ccc(S(=O)(=O)N2CCN(c3cc(-c4ccccc4)nc4ncnn34)CC2)cc1
1.4,nt,-1.8,-2.5%,nt,-5.3,0.708,CCCc1nnc(NC(=O)c2c(O)c3c([nH]c2=O)CCCC3)s1
-2.6,i,6.6,nt,0.7,-5.9,0.704,CCCNC(=O)Cc1c(C)n(C(=O)c2ccc(Cl)cc2)c2ccc(OC)cc12
1.0,i,1.5,11.1%,-4.1,i,0.638,Cc1coc2c1c(C)cc1oc(=O)c(CC(=O)NCC(=O)NCC(=O)O)c(C)c12
1.1,i,nt,-2.3%,2.4,4.4,0.692,O=C(NCC1CCCO1)c1ccc(S(=O)(=O)Nc2ccc(F)cc2)cc1 (stereo unspecified)
1.5,nt,3.6,8.1%,nt,-12.2,0.748,N#C/C(=C/c1ccc(-c2ccc(S(N)(=O)=O)cc2)o1)C(=O)Nc1ccccc1
6.5,nt,-0.7,nt,nt,1.4,0.738,CCOc1ccc(-n2cc(C(=O)Nc3cccc(C)n3)c3cc(OC)c(OC)cc3c2=O)cc1
2.1,nt,-0.7,-3.9%,nt,1.8,0.661,O=C(CNC(=O)c1ccc(Cl)cc1Cl)OCC(=O)c1ccc2c(c1)OCCO2
5.6,i,?,3.6%,-9.2,2.2,0.663,O=C(Nc1ccccc1OCc1ccccc1)c1ccccc1Br
